OX1R antag = OX1R (human) antagonism | OX1R-expressing cells, FRET antagonist read-out | inhibition, % at 6.6 µM | 1.8% of 330,000 active; in the data active = inhibition mostly above about 38%, no sharp cut-off; inactive = mostly below about 40%;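 note: 0% = agonist challenge alone and 100% = reference antagonist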
Target sequence (O43613 whole entry, looked up): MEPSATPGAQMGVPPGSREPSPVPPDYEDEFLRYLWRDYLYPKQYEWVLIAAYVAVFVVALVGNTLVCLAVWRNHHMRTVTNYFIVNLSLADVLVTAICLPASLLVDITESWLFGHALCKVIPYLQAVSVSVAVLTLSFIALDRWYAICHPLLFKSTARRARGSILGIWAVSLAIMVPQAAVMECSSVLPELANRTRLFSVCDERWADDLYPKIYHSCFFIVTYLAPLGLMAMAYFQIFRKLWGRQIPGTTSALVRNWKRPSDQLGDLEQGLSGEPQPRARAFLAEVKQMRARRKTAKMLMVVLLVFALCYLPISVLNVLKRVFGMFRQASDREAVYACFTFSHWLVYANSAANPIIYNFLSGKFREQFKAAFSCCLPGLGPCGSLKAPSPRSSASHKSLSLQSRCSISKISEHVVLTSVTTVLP
Starred values were filed as active, the others as inactive.

SMILES	OX1R antag
Cc1ccc(-c2nc3ccccc3c(=O)n2-n2cccc2)cc1	19.6
COC(=O)C1=C(c2ccc3ccccc3c2)C[C@@H]2CC[C@H]1N2C(=O)NC(C)C	8.5
COCc1c(CN)cnc(C)c1N	5.4
COc1ccc(CN2CCN(c3ccccc3F)CC2)c(OC)c1	8.3
CCS(=O)(=O)Nc1cccc(C(=C2CCCCC2)c2cnc[nH]2)c1	20.3
COc1cccc(-n2c(O)c(C=NCCN3CCOCC3)c(=O)[nH]c2=O)c1	0.9
COc1ccccc1N1CCN(C(CNC(=O)Oc2ccccc2)c2cccnc2)CC1 (centres undefined)	4.2
Cc1cc(NC(=O)CCl)on1	15.5
O=c1[nH]c(=S)n(-c2ccccc2)c(O)c1/C=N/N1CCCCC1c1cccnc1 (centres undefined)	5.3
C=CCc1ccc(OC)cc1	9.4
O=C(CCCN1CCC(n2c(=O)[nH]c3ccccc32)CC1)c1ccc(F)cc1	10.1
CSC1=NP(=S)(SC)N(C)c2nc3n(c21)CCC3 (centres undefined)	-8.0
CCOC(=O)c1c(C)[nH]c(C)c1C(=O)C(Cc1ccccc1)N(C)C (centres undefined)	23.1
CC(=O)O[C@]1(c2ccccc2)CCN(C)[C@H]2CCCC[C@@H]21	14.2
c1cncc(CNC2=NCCCCC2)c1	7.4
C/C(=N\NC(=O)c1ccccc1)c1c(O)n(Cc2ccccc2)c(=O)[nH]c1=O	10.3
COC(=O)C1=C(c2ccc(F)cc2F)C[C@@H]2CC[C@H]1N2C(=O)NC1CC1	-5.2
COc1cc2c(cc1OC)C(C1c3cc4c(cc3CCN1C)OCO4)OC2=O (centres undefined)	8.8
CCOc1ccccc1-n1c(O)c(C=NCc2ccc3c(c2)OCO3)c(=O)[nH]c1=O	21.5
O=C1CCN(C(=O)Cc2ccccc2[N+](=O)[O-])CC1	4.7
Oc1cc2c(cc1CN1CCN(c3ccccc3)CC1)OCO2	17.4
O=C(COC(=O)Cc1ccccc1)Nc1ccc(Cl)cn1	28.5
CNCCc1c[nH]c2ccccc12	10.6
CCCCc1cc(=O)oc2cc(OCC(=O)N3C[C@H]4C[C@@H](C3)c3cccc(=O)n3C4)c(Cl)cc12	9.0
O=C(COc1ccc2ccccc2c1)N1CCN(C2CCN(Cc3ccccc3)CC2)CC1	14.9
C=CCn1c(O)c(C(CC)=NC(C)c2ccccc2)c(=O)[nH]c1=O (centres undefined)	11.4
O=C1/C(=C\c2ccncc2)N2CCC1CC2	15.6
Cn1c(O)c(C(=Nc2ccc(F)cc2)c2ccccc2)c(=O)n(C)c1=O	4.8
CC(=O)N(C1=NCCCS1)c1ccc(F)cc1	27.4
O=C1c2ccccc2C2(c3ccc(Cl)cc3)NCCN12 (centres undefined)	3.6

By substructure: the compounds so far with nitrogen in an aromatic ring.
SMILES	OX1R antag
Cc1ccc(-c2nc3ccccc3c(=O)n2-n2cccc2)cc1	19.6
COCc1c(CN)cnc(C)c1N	5.4
CCS(=O)(=O)Nc1cccc(C(=C2CCCCC2)c2cnc[nH]2)c1	20.3
COc1cccc(-n2c(O)c(C=NCCN3CCOCC3)c(=O)[nH]c2=O)c1	0.9
COc1ccccc1N1CCN(C(CNC(=O)Oc2ccccc2)c2cccnc2)CC1 (centres undefined)	4.2
Cc1cc(NC(=O)CCl)on1	15.5
O=c1[nH]c(=S)n(-c2ccccc2)c(O)c1/C=N/N1CCCCC1c1cccnc1 (centres undefined)	5.3
O=C(CCCN1CCC(n2c(=O)[nH]c3ccccc32)CC1)c1ccc(F)cc1	10.1
CSC1=NP(=S)(SC)N(C)c2nc3n(c21)CCC3 (centres undefined)	-8.0
CCOC(=O)c1c(C)[nH]c(C)c1C(=O)C(Cc1ccccc1)N(C)C (centres undefined)	23.1
c1cncc(CNC2=NCCCCC2)c1	7.4
C/C(=N\NC(=O)c1ccccc1)c1c(O)n(Cc2ccccc2)c(=O)[nH]c1=O	10.3
CCOc1ccccc1-n1c(O)c(C=NCc2ccc3c(c2)OCO3)c(=O)[nH]c1=O	21.5
O=C(COC(=O)Cc1ccccc1)Nc1ccc(Cl)cn1	28.5
CNCCc1c[nH]c2ccccc12	10.6
CCCCc1cc(=O)oc2cc(OCC(=O)N3C[C@H]4C[C@@H](C3)c3cccc(=O)n3C4)c(Cl)cc12	9.0
C=CCn1c(O)c(C(CC)=NC(C)c2ccccc2)c(=O)[nH]c1=O (centres undefined)	11.4
O=C1/C(=C\c2ccncc2)N2CCC1CC2	15.6
Cn1c(O)c(C(=Nc2ccc(F)cc2)c2ccccc2)c(=O)n(C)c1=O	4.8

Remaining list, next part
SMILES	OX1R antag
CC1CN=C(Nc2ccccc2)S1 (centres undefined)	8.3
COC(=O)C1=C(c2ccc(OC(F)(F)F)cc2)C[C@@H]2CC[C@H]1N2C(=O)NCCOc1ccccc1Cl	4.4
COC(=O)C1=C(c2ccc(OC)c(OC)c2)C[C@@H]2CC[C@H]1N2C(=O)N1CCOCC1	4.6
Clc1ccc(CNC2CN3CCC2CC3)cc1 (centres undefined)	10.6
CC(C)=CCC12CN3CCN(CC(C3)C1=O)C2	15.2
COc1ccc(NC(=O)c2cn(CCC#N)nc2-c2cccc([N+](=O)[O-])c2)cc1	2.9
O=C(Nc1ccccc1)c1c(O)[nH]c(=O)[nH]c1=O	23.0
COc1cc2c(cc1OC)C(C)NCC2 (centres undefined)	13.3
CC(=O)NCC(=O)Nc1ccc(Br)cc1C(=O)c1ccccc1	8.3
COc1cc2c(cc1OC)C(C(=O)N1CCC3(CC1)OCCO3)C(c1ccccc1F)N(C)C2=O (centres undefined)	30.3
CCOC(=O)C(=O)NC1CCSC1=O (centres undefined)	9.1
COc1ccc(CCn2c(O)c(/C=N/N3CCCCC3)c(=O)[nH]c2=O)cc1OC	5.2
COCCOC(=O)C1=C(C)OC(N)=C(C(=O)OC)C12C(=O)Nc1ccccc12 (centres undefined)	16.4
CN1CCN(C(=O)COc2ccc(Oc3ccccc3)cc2)CC1	13.2

Screening results (PubChem BioAssay)

A portion of the library, and most or all hits are left out here.
